MT1-MMP promoter: MT1-MMP gene expression reporter suppression – cell-based, luciferase reporter, luminescence (AID 618); MT1-MMP promoter luciferase reporter cells, luminescence; calls from a first round at 10 µM; hits with a dose series show EC50 in µM; hit rate 0.62% among 87,000;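 active = over half of the reporter light lost at 10 µM or EC50 under 50 µM; inactive = the rest and hits that failed the dose series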;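 also: actives suppress MT1-MMP promoter-driven transcription so potencies describe inhibitors; HT1080 fibrosarcoma cells; overnight exposure; toxic or luciferase-blocking compounds were not removed from the actives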
Hsc70: small molecules displacing fluorescent ligand from Hsc70 – biochemical, fluorescence polarization, primary screen (AID 568). Hsc70 fluorescence polarization, probe displacement; higher % means a stronger effect; strong numbers were not always called active. displacement, % at 20 µM; hits with a dose series show IC50 in µM. 83,000 tested, under 10 active;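 active = displacement above 50% without optical interference and an IC50 on retest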;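 also: ATPase domain with a fluorescein-tagged ATP probe; 0% = vehicle and 100% = excess ADP; read after one hour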
WNV NS2B-NS3 inh: WNV NS2B-NS3 proteinase inhibition. hit rate 0.18% among 65,000. AID 577. z-score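 (tested at a level between 10 and 100 µM)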. WNV NS2B-NS3 protease, fluorogenic substrate Ex360/Em465; hits give low values. P06935;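 active = z-score at -3 or under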;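 also: score is relative to mean and spread of the compound wells of a plate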
Target sequence (P06935 1371-1501 limits assumed): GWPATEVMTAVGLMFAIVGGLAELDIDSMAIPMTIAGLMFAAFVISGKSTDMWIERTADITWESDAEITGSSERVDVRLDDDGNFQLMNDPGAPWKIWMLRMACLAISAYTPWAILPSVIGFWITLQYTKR
Target sequence (P06935 1502-1679 limits assumed): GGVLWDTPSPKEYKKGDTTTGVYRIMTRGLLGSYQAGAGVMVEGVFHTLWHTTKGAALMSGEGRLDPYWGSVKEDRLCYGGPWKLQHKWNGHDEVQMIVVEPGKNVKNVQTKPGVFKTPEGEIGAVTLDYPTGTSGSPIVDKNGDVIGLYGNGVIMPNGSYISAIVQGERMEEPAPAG
Starred values were filed as active, the others as inactive; i = inactive; / = no result given.

Start of the listing, in advance, 3 compounds:
SMILES | MT1-MMP promoter | Hsc70 | WNV NS2B-NS3 inh
COc1ccc(NC(=O)Cn2cccc2)c(OC)c1 | i | -2.0% | -0.88
CCCOC(=O)C1[C@H]2C(=O)N(C(C)c3ccc(OC)cc3)C[C@]23C=C[C@H]1O3 (stereo partly specified) | i | -0.9% | 0.41
COc1ccc(C2c3ccc4ccccc4c3Oc3ncn(CCN4CCOCC4)c(=N)c32)cc1 (stereo unspecified) | i | -2.4% | /

The whole of this part, previewed entries included:
SMILES | MT1-MMP promoter | Hsc70 | WNV NS2B-NS3 inh
COc1ccc(NC(=O)Cn2cccc2)c(OC)c1 | i | -2.0% | -0.88
CCCOC(=O)C1[C@H]2C(=O)N(C(C)c3ccc(OC)cc3)C[C@]23C=C[C@H]1O3 (stereo partly specified) | i | -0.9% | 0.41
COc1ccc(C2c3ccc4ccccc4c3Oc3ncn(CCN4CCOCC4)c(=N)c32)cc1 (stereo unspecified) | i | -2.4% | /
CCSCCC(NC1=CC(=O)CC(C)(C)C1)C(=O)O (stereo unspecified) | i | -0.2% | 0.09
COc1cccc(-c2nn3c(-c4ccccn4)nnc3s2)c1 | i | -1.6% | -1.6
COCCn1c(SCC(=O)NC(=O)NCc2ccccc2)nc2ccccc21 | i | 2.6% | 0.72
CCN(CC)c1nc(SCCOC(=O)Nc2ccccc2)nc(N(CC)CC)n1 | i | 0.1% | /
Cc1ccn2cc(C(=O)Nc3ccccc3N3CCOCC3)nc2c1 | i | 0.5% | 1.5
Cc1ccc(N(CC(=O)Nc2ccc3c(c2)OCCO3)S(=O)(=O)c2c(C)noc2C)cc1 | i | 5.5% | -0.44
CCOC(=O)c1nnn(-c2nonc2N)c1-c1cccc2ccccc12 | i | 1.6% | -0.29
Cc1ccc(NC(=O)CSC2=C(C#N)C(c3ccc4c(c3)OCO4)C3=C(CCCC3=O)N2)c(C)c1 (stereo unspecified) | i | 3.1% | 0.45
Nc1ccccc1-c1nnc(SCc2ccccc2Cl)[nH]c1=O | i | 4.3% | /
CCOC(=O)CNc1ncnc2nc[nH]c12 | i | -3.1% | -1.3
CCOC(=O)c1ccc(NS(=O)(=O)N2CCCCCC2)cc1 | i | 0.0% | -0.77
O=S(=O)(NCc1cccnc1)c1cc(Cl)ccc1Cl | i | -0.3% | 0.29
COc1ccc(C(=O)Nc2nccs2)cc1OC | i | -6.0% | -1.5
Nc1cc(N)nc(SCCOc2ccccc2)n1 | i | 7.7% | -0.22
CC(=O)N1CCN(Cc2nc3cc(NC(=O)c4ccccc4)ccc3n2C)CC1 | i | 2.5% | /
CCC(OC(=O)c1cc2sccc2n1C)C(=O)NCC1CCCO1 (stereo unspecified) | i | -0.8% | 0.59
COCc1cc(C)nc(SCC(=O)Nc2ccccc2C)c1C#N | i | -0.3% | 0.29
CCCC(=O)c1ccc(N2CCN(S(=O)(=O)c3ccccc3)CC2)c(F)c1 | i | -3.7% | -0.54
Cc1ccc(OCc2nnc(SCC(=O)O)n2N)cc1 | i | -2.7% | /
O=C(c1ccccc1)c1ccc(C(=O)N2CCOCC2)cc1 | i | -8.5% | 0.59
CC1(C)CC(=O)C2=C(C1)OC(N)=C(C#N)C21CCN(Cc2ccccc2)CC1 | i | 1.1% | 2.2
CCOC(=O)CC1=C(C(=O)OCC)C(c2ccc(OC)cc2OC)C(C#N)=C(N)O1 (stereo unspecified) | i | 11% | 0.45
O=C(CCS(=O)(=O)c1ccc(Cl)cc1)N1CCN(S(=O)(=O)c2cccs2)CC1 | i | -0.4% | -0.06
CC1=C(C)C(=O)NC(Nc2nc(C)c3cc(C)cc(C)c3n2)N1 (stereo unspecified) | i | 4.2% | 0.15
C(=N\n1cnnc1)/c1ccc(OC2CSC2)cc1 | i | 5.8% | 0.34
Cc1ccc(S(=O)(=O)NCc2ccc(C(=O)N3CCN(c4ccccn4)CC3)cc2)cc1 | i | 4.7% | 0.99
O=C(NCc1cccc(C(F)(F)F)c1)C1CCN(c2ncccn2)CC1 | i | -1.1% | 0.3

Exported with each value named: part of the list above.
structure: Cc1ccc(OCc2nnc(SCC(=O)O)n2N)cc1
- MT1-MMP promoter: i
- Hsc70: -2.7%
- WNV NS2B-NS3 inh: /
structure: O=C(c1ccccc1)c1ccc(C(=O)N2CCOCC2)cc1
- MT1-MMP promoter: i
- Hsc70: -8.5%
- WNV NS2B-NS3 inh: 0.59

(further entries)
SMILES | MT1-MMP promoter | Hsc70 | WNV NS2B-NS3 inh
O=C(Nc1ccc2oc(-c3ccncc3)nc2c1)c1c(F)c(F)c(F)c(F)c1F | i | -17% | 1.9
COc1ccccc1CC(=O)N(CCC#N)CCC#N | i | -0.7% | 0.95
CC(=O)c1cc(F)c(N2CCN(C(=O)COc3ccccc3F)CC2)cc1C | i | 0.5% | /
Cc1ccc(-c2cc(C(=O)N3CCN(c4ncccn4)CC3)c3ccccc3n2)cc1 | i | 1.9% | -1.3
N#Cc1ccccc1NC(=O)COC(=O)c1ccc2c(c1)OCCO2 | i | -4.3% | -1.8
COc1cccc(NC(=O)C(NCC2CCCCC2)c2ccccc2)c1 (stereo unspecified) | i | 1.7% | /
CCn1c(CSc2nccn2C)nc2cc(C(=O)O)ccc21 | i | 37% | 0.41
Cc1c(Cl)cccc1N1C(=O)C2ON(c3ccccc3)C(c3cccnc3)C2C1=O (stereo unspecified) | i | 0.4% | 1
CCOC(=O)c1cccc(NC(=O)CSc2nc(N)cc(N)n2)c1 | i | -4.2% | 0.69
O=C(O)C1CC=CCC1C(=O)Nc1cccc(F)c1 (stereo unspecified) | i | 2.7% | -0.04
CCCOC(=O)c1ccc(NC(=O)c2cnccn2)cc1 | i | -6.1% | 0.47
CCN1CCN(c2nc3ccccc3nc2C(C#N)S(=O)(=O)c2ccc(C)c(C)c2)CC1 (stereo unspecified) | i | 2.6% | /
Cc1nn(Cc2ccc(Cl)cc2)c(C)c1N | i | -6.0% | /
Cc1ccc(-c2nsc3c(N4CCC(C(N)=O)CC4)ncnc23)cc1 | i | -1.0% | -1.1
CCN(c1ccccc1)c1nc2ccsc2c(=O)s1 | i | 8.2% | -0.86
O=C(CSc1nc2ccsc2c(=O)n1-c1ccccc1)N1CCCC1 | i | -1.5% | -0.78
CCOC(=O)c1c(C)nn(Cc2cccc(Cl)c2)c1N | i | 1.0% | 0.0047
CC(C)(C)OC(=O)N1CCC(C(=O)N2CCC[C@H]2C(=O)O)CC1 | i | 0.0% | -0.73
Cc1ccc(Cl)cc1NC(=O)CCn1cccc1 | i | 4.1% | -0.07
CCCS(=O)(=O)N1CCCC(C(=O)NC2CCCC(C)C2C)C1 (stereo unspecified) | i | -1.8% | 0.06

An excerpt of these results, with two lines to a compound:
Values in the order – MT1-MMP promoter | Hsc70 | WNV NS2B-NS3 inh
O=C(c1ccccc1)c1ccc(C(=O)N2CCOCC2)cc1
→ i | -8.5% | 0.59
Cc1ccc(Cl)cc1NC(=O)CCn1cccc1
→ i | 4.1% | -0.07
Nc1cc(N)nc(SCCOc2ccccc2)n1
→ i | 7.7% | -0.22

Next part:
SMILES | MT1-MMP promoter | Hsc70 | WNV NS2B-NS3 inh
CCCCc1nc(NCCNC(=O)c2ccco2)c(C#N)c2c1CSC(C)(C)C2 | i | -0.8% | 0.01
Cc1ccc(NC(=O)c2cc(NC(=O)c3ccco3)ccc2N2CCCCC2)cc1 | i | 64% | 1.8
c1ccc(-c2nc(NCCCn3ccnc3)c3oc4ccccc4c3n2)cc1 | i | -3.2% | /
CCOC(=O)c1c(C)oc2ccc(OCC(=O)N(CC)CC)cc12 | i | 0.9% | 0.01
Cc1cccc(NC(=O)CSc2nnc(-c3ccccc3Br)o2)c1C | i | 2.0% | 1.2
CCOC(=O)Cn1cc(C(=O)C2CC2)c2ccccc21 | i | 4.7% | 0.09
CNc1nc2c(c(=O)[nH]c(=O)n2C)n1CCOC | i | 2.2% | 0.69
CC(C)c1nc2sc3c(SCC(=O)NCc4ccco4)ncnc3c2c2c1CCC2 | i | 61% | 1.1
Cc1cc2c(cc(C(=O)NCc3cccnc3)n2Cc2ccc(Cl)cc2)o1 | i | -1.9% | 0.96
CCOCCCNC(=O)CN(Cc1ccc(Cl)cc1)S(C)(=O)=O | i | -0.2% | -0.3
CCOC(=O)c1ccc(NC(=O)NS(=O)(=O)c2ccc(C)cc2)cc1 | i | -6.8% | -0.94
Cc1nc2cc(NC(=O)NCc3ccc4c(c3)OCO4)ccc2o1 | i | -2.9% | -0.62
O=C(NCC1COCCO1)C1CCN(S(=O)(=O)c2ccccc2)CC1 (stereo unspecified) | i | 4.1% | 1.3
Nc1c(C(=O)NCc2cccnc2)sc(=S)n1-c1ccccc1 | i | -2.2% | 0.23
Oc1cc(Cc2ccccc2)cnc1CN1CCOCC1 | i | 1.2% | 1.1
CC(NC(=O)CN1CCN(c2ncccn2)CC1)c1ccc(F)cc1 (stereo unspecified) | i | -0.2% | /
CCCn1c(SCC(=O)c2ccc(CC)cc2)n[nH]c1=O | i | 0.8% | /
O=C(c1cnc2n(c1=O)CCS2)N1CCc2ccccc21 | i | 7.7% | -0.13
O=C(Nc1ccc(OC(F)(F)F)cc1)C1CCCN(S(=O)(=O)c2cccnc2)C1 (stereo unspecified) | i | -3.0% | -0.53
CCc1ccc(NS(=O)(=O)c2cccs2)cc1 | i | 1.4% | 1.2
O=C1c2ccccc2C(=O)N1c1ncccn1 | i | 4.1% | 0.97
Oc1ccc(-c2onc(C(F)(F)F)c2-c2cscn2)c(O)c1 | i | -3.6% | -0.72
Cc1ccc(-n2c(=O)c(C#N)cc3c(=O)n4ccccc4nc32)cc1 | i | -9.9% | 2
Cn1cnnc1SCC(=O)Nc1sc2c(c1C#N)CCCCC2 | i | -6.1% | -0.2
CCOC(=O)c1c(C)[nH]c(C(=O)CSc2ccccc2)c1C | i | 1.4% | 3
O=C(NCc1cccnc1)c1cnc2n(c1=O)CCS2 | i | -2.0% | 1.4
Cc1cc(=O)[nH]c(SCC(=O)C23CC4CC(CC(C4)C2)C3)c1C#N | i | -3.8% | 0.92
O=C(O)c1cccc(N2CCCC2=O)c1 | i | -9.2% | 0.07
Cc1cc(=O)[nH]c(SCC(=O)Nc2ccc(S(=O)(=O)N3CCOCC3)cc2)n1 | i | 1.7% | /
CC(C)C(=O)N1CCN(CCN=CC2=C(O)CC(c3ccco3)CC2=O)CC1 (stereo unspecified) | i | 0.3% | -0.04
CCN1C(=O)c2cccc3c(S(=O)(=O)NCc4ccccn4)ccc1c23 | i | -5.0% | /
CC(=O)Nc1ccc(S(=O)(=O)N(c2cccnc2)S(=O)(=O)c2ccc(NC(C)=O)cc2)cc1 | i | 2.6% | /
COc1cccc(CNc2nc3nc(C)c(Cl)c(C)n3n2)c1 | i | 3.0% | 0.01
Nc1c(S(=O)(=O)c2ccccc2)c2nc3ccccc3nc2n1/N=C/c1ccco1 | i | -16% | 0.27
COc1ccc(N2C(=O)CC(Sc3nccc(C)n3)C2=O)cc1 (stereo unspecified) | i | -0.7% | -0.19
CC1CN(C(=O)CN2C(=O)c3ccccc3C2=O)CC(C)O1 (stereo unspecified) | i | 2.0% | 0.53
COc1ccccc1C(=O)NCc1ccc2c(c1)OCO2 | i | -1.1% | -1
CCOC(=O)C1CCCN(Cc2cccc(Cl)c2)C1 (stereo unspecified) | i | -2.4% | 0.47
CN1CCN(C(=O)c2cccc(S(=O)(=O)N3CCCCC3)c2)CC1 | i | 6.8% | -0.94
CS(=O)(=O)N(CC(=O)N1CCN(c2ccccc2F)CC1)c1cccc(C(F)(F)F)c1 | i | -3.1% | -0.11
O=C(CN1CCN(c2nc(-c3ccccc3)cs2)CC1)Nc1ccc2c(c1)OCO2 | i | 3.2% | -0.36
CCOc1cc(S(=O)(=O)NCc2ccco2)c(OCC)cc1-n1cnnn1 | i | -5.8% | -1
O=C(CC(c1ccccc1)c1cc(Br)ccc1O)NCc1ccco1 (stereo unspecified) | i | -2.0% | 0.94
Cc1c(Cc2ccccc2)sc(NC(=O)c2ccco2)c1C(N)=O | i | 4.2% | /
O=C(C1CCCN1S(=O)(=O)c1cccc2cccnc12)N1CCc2ccccc21 (stereo unspecified) | i | -1.3% | -1.2
O=C1CCCC(O)=C1C(C#Cc1ccccc1)C1=C(O)CCCC1=O | i | -5.3% | 0.39
CCOCCCNS(=O)(=O)c1ccc(OC)c(Cl)c1Cl | i | 0.7% | /
COc1ccc(CCNc2c(N)n(Cc3ccccc3)c(=O)[nH]c2=O)cc1OC | i | 28% | 0.05
CCCc1nc(SCC(=O)NCc2ccco2)c2c(=O)n(C)c(=O)n(C)c2n1 | i | -1.6% | -1.4
CCOc1ccc(NC(=O)C2CCN(S(=O)(=O)c3cccnc3)CC2)cc1 | i | -3.3% | /
New compounds follow:
SMILES | MT1-MMP promoter | Hsc70 | WNV NS2B-NS3 inh
COc1ccc(C(=O)Nn2c(C3CCC3)nc3ccccc3c2=O)c(OC)c1 | i | -0.7% | -0.51
O=C(COc1ccc(Cl)cc1Cl)NC1CCSC1=O (stereo unspecified) | i | 7.0% | -0.86
CCC(=O)Nc1cccc(-c2nnc(SCC(=O)c3ccccc3)n2C)c1 | i | 4.5% | -1.1
CN(Cc1ccc(OC(F)F)cc1)C(=O)c1ccc2nccnc2c1 | i | -5.6% | 0.61
COc1cc(C)nc(NS(=O)(=O)c2ccc(C)cc2)n1 | i | 0.4% | 0.73

Of the compounds above, 2 contain bromine:
SMILES | MT1-MMP promoter | Hsc70 | WNV NS2B-NS3 inh
Cc1cccc(NC(=O)CSc2nnc(-c3ccccc3Br)o2)c1C | i | 2.0% | 1.2
O=C(CC(c1ccccc1)c1cc(Br)ccc1O)NCc1ccco1 (stereo unspecified) | i | -2.0% | 0.94

High-throughput results as filed in PubChem.

The list is partial (hit frequency here may not be typical).
